miR-21 reporter: qHTS Assay for Modulators of miRNAs and/orActivators of miR-21; HeLa miR-21 FLuc reporter, luciferase, 48 h; Potency, µM (highest dose often 38.3 µM), without a hit: at the top dose reporter change, positive = more light; 340,000 tested, under 10 active; AID 2288, 2010; active = well fitted rising curve with a large enough effect; inconclusive = small, poorly fitted or top-dose-only effect; inactive = no such curve, though single readings can be large or run the other way;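 also: % of control where 0% means no effect; miR-21 action dims this reporter so a rising signal means less miR-21 action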
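HeLa cells endogenously expressing miR-21, stably carrying CMV-driven firefly luciferase with a downstream miR-21 binding site, 2000 cells/well. Titrations up to approximately 40 uM, 48 hours; luciferase luminescence read.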
Rango complex inh: qHTS Assay for Inhibitors of Rango (Ran-regulated importin-beta cargo) - Importin beta complex formation; Rango CFP/YFP FRET sensor + importin beta, 45 min; Potency, µM (top dose mostly 92.2 µM), inactives show top-dose inhibition of complex formation; actives 0.031% (n = 340,000); active = rising FRET ratio curve, often small or poorly fitted; inconclusive = mostly compound fluorescence or quenching in the first reads; inactive = flat curves in all reads;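 also: potency is read from the fitted curve at half-maximal effect; 0% = DMSO wells and 100% = buffer wells lacking importin beta; nearly all actives have a fitted effect of over 15% in size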
Target sequence (Q14974 whole entry, looked up): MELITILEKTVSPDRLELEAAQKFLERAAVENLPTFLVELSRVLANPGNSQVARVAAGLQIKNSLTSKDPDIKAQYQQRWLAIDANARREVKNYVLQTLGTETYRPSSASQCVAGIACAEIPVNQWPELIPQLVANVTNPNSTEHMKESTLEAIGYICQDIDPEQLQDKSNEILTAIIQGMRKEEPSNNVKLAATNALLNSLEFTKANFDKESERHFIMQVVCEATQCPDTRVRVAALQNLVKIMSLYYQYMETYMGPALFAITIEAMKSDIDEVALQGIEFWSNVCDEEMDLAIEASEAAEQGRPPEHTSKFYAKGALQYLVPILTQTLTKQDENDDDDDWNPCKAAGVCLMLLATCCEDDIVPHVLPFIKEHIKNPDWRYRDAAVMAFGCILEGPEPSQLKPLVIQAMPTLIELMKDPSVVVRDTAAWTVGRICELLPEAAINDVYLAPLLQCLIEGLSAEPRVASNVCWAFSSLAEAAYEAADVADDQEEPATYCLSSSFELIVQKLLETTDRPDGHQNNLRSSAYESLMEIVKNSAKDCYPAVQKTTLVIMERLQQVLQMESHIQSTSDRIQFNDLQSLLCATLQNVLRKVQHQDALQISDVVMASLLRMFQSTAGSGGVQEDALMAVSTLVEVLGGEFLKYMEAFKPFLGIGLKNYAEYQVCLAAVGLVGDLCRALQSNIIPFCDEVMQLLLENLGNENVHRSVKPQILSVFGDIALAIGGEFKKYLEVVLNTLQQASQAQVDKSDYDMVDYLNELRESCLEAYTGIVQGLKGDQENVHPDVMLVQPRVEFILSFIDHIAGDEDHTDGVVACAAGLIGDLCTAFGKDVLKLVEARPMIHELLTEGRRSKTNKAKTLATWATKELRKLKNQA
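FRET biosensor (snurportin 1 IBB flanked by EYFP and cerulean), 50 nM, with compound 5 min, then 0.125 microM importin beta in PBS, 1 mM DTT, 0.02% Tween-20, 0.1% BSA. CFP/YFP ratio read after 45 min at room temperature; pre-read flags interference.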
Rango release inh: qHTS Assay for Inhibitors of RanGTP induced Rango (Ran-regulated importin-beta cargo) - Importin beta complex dissociation; actives 0.071% (n = 340,000); Snurportin-1 (Homo sapiens) + GTP-binding nuclear protein Ran (Homo sapiens) + Importin …; Biochemical FRET Rango-importin beta, RanGTP-induced dissociation; Potency, µM (highest dose often 46.1 µM), for the others: at the highest dose activity change, negative = inhibition; active means falling FRET ratio curve, often poorly fitted, with flat reads before Ran was added; inconclusive means other falling curves, or compound fluorescence or quenching; inactive means flat or rising ratio curve;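 also: potency is read from the fitted curve at half-maximal effect; % of control where 0% means no effect; nearly all actives have a fitted effect of over 45% in size; -100% = wells without RanGTP and RCC1; the record marks most hits as doubtful in a second field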
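Rango (0.1 uM)–importin beta (0.25 uM) complex; RanGTP-RCC1 trigger; 45 min RT; CFP/YFP FRET read.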
GLA inh pH 4.5: qHTS Assay for Inhibitors of Human alpha-Galactosidase at pH 4.5. activity change, negative = inhibition, % at 105 µM. 230,000 tested, under 10 active. AID 1467, 2008. purified enzyme, 4-MU-alpha-Gal fluorescence, pH 4.5. Alpha-galactosidase A (Homo sapiens), P06280; inconclusive = small, poorly fitted or top-dose-only inhibition, or a rising curve; inactive = flat fitted curve, though single readings scatter; no compound was filed as active;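 also: 0% = full activity with enzyme and -100% = basal without enzyme; dose as in the result columns while the protocol names 77 µM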
Numbers without * were called inactive; ? = inconclusive; nt = no result given.

SMILES | miR-21 reporter | Rango complex inh | Rango release inh | GLA inh pH 4.5
CCNC(=O)C12CCC(C)(C(=O)O1)C2(C)C (centres undefined) | -4% | -0.4% | -13% | nt
Fc1cc(F)c2nc(N3CCCC3)sc2c1 | -46% | 2.2% | 2% | 0
CCCNC(=S)N1CCC(n2cnc3ccccc32)CC1 | 0% | 3.9% | 25% | 4
Cc1cc(NO)c(C(C)C)cc1N=O | 1% | -1.6% | 1% | -4
COc1ccc(CN2[C@@H](CC(=O)O)c3cc(C(F)(F)F)ccc3S2(=O)=O)cc1 | nt | -0.4% | 1% | nt
CS(=O)(=O)c1ccc(C(=O)CN2C(=O)NC3(CCCc4ccccc43)C2=O)cc1 (centres undefined) | nt | -1.0% | -9% | nt
CCCN(CC1CC1)C(=S)NC(=O)C1CC1 | 1% | 2.3% | -1% | -3
Cc1sc(NC(=S)NC(=O)CCc2ccccc2)c(C(N)=O)c1C | 20% | 0.3% | 2% | -5
Cn1c(N)c(C(=O)COC(=O)c2cccs2)c(=O)n(C)c1=O | -13% | 1.8% | -18% | -5
O=C(CCC(=O)Nc1cc(C(F)(F)F)ccc1Cl)N/N=C\c1cc([N+](=O)[O-])ccc1O | 1% | -2.8% | 5% | nt
Cc1nnc(NC(=O)C2C3C=CC(O3)C2C(=O)O)s1 (centres undefined) | -3% | nt | nt | 4
Cc1cc(CN(C)Cc2cn(C)nc2-c2ccc(Oc3ccccc3)cc2)on1 | 16% | 1.7% | 9% | -8
O=C(NCc1ccccc1)C1CCCN1C(=O)Nc1ccccc1[N+](=O)[O-] (centres undefined) | -3% | 4.7% | 3% | nt
O=C(NC1CCC(O)CC1)c1ccc(NS(=O)(=O)c2cccc([N+](=O)[O-])c2)cc1 (centres undefined) | nt | 4.2% | -19% | nt
CC1N(C(=O)N2CCOCC2)CCN1S(=O)(=O)c1cccc(C(F)(F)F)c1 (centres undefined) | 4% | 1.9% | -16% | nt
COc1ccc(Cn2nnnc2C(CC(C)C)N2CCN(c3ccccc3)CC2)cc1 (centres undefined) | 6% | -4.2% | 29% | -4
Clc1ccc(Cn2ccc(-c3ccc4c(c3)OCO4)n2)cc1Cl | -10% | -1.6% | 13% | -10
Cc1ccc(-n2ncc3c2CC(C)(C)CC3NC(=O)CCCN2CCCCC2=O)cc1 (centres undefined) | -2% | 0.8% | 3% | nt
CCN(CC(=O)Nc1cc(S(=O)(=O)N2CCOCC2)ccc1Cl)Cc1ccccc1 | nt | -3.3% | -4% | nt
CCOC(=O)c1ccc(NC(=S)Nc2ccc(Cl)cn2)cc1 | 2% | -2.6% | 0% | 5
Cc1ccc(SC[C@H](CC(C)C)N2CCN(CCc3ccccc3)CCC2=O)cc1 | -26% | 3.3% | 0% | -10
CCC(=O)NC(Nc1cc(C)ccn1)(C(F)(F)F)C(F)(F)F | -2% | 5.7% | 9% | -18
Cc1nc(NC(=O)COC(=O)C(NC(=O)c2ccco2)C(C)C)c(Cl)cc1Cl (centres undefined) | 0% | -0.3% | 3% | -2
CC[C@]1(C(=O)OC)[C@H]2C(=O)N(Cc3ccccc3)C(=O)[C@H]2[C@H]2CN(C)C(=NC)N21 | nt | 4.4% | -6% | nt
CC(C)CN(C(=O)CN1C(=O)NC2(CCc3ccccc32)C1=O)C1CCS(=O)(=O)C1 (centres undefined) | nt | ? | -14% | nt
c1ccc(SCc2cc(-c3ccccc3)no2)cc1 | -55% | 2.9% | 14% | 3
O=C(Nc1cccc(S(=O)(=O)N2CCOCC2)c1)c1cccc(S(=O)(=O)N2CCCC2)c1 | nt | 0.1% | -10% | nt
CN(C(=O)CSc1nc(-c2cccs2)nc2ccccc12)C1CCS(=O)(=O)C1 (centres undefined) | nt | 3.1% | -5% | nt
CCc1cc2c(=O)n(Cc3ccco3)c(SCC(=O)N3CCCc4ccccc43)nc2s1 | -7% | 4.9% | -15% | -7
CCN(C(=O)C1CCN(c2nc(-c3ccc(OC)cc3)no2)CC1)c1ccc(OC)cc1 | 22% | -1.4% | -1% | nt
Cc1ccc(C2/C(=C(/O)c3ccccc3)C(=O)C(=O)N2CCN2CCOCC2)o1 (centres undefined) | -5% | 5.4% | 1% | 5
O=C(CCCN1C(=O)c2ccccc2C1=O)Nc1ccc(Br)cn1 | -2% | 4.5% | -7% | -4
CCOC(=O)c1ccc(NC(=O)COc2ccc(-n3cnnn3)cc2)cc1 | 1% | -0.5% | 26% | 4
CCOC(=O)C1=C(C)NC(=S)NC1c1cc(C)sc1C (centres undefined) | 6% | 0.5% | 0% | -3
COc1ccc(N(CC(=O)NCc2ccccn2)S(=O)(=O)c2ccccc2[N+](=O)[O-])c(OC)c1 | -1% | 3.3% | -2% | 7
O=C1N(c2ccccc2C(F)(F)F)O[C@]1(c1ccccc1)C1CCCC1 | nt | -1.2% | 5% | nt
O=C(COc1cccc(Cl)c1)N/N=C\c1cc2ccccc2nc1Cl | 0% | -4.3% | 1% | 1
CCN1CCN(C(=O)c2cc3cc4ccc(OC)cc4nc3s2)CC1 | -33% | 0.7% | 0% | 3
O=C(O)c1ccccc1NS(=O)(=O)c1cccc(N=Nc2c(O)[nH]c(=S)[nH]c2=O)c1 | nt | -1.7% | 20% | nt
COc1cc(NC(=O)c2ccco2)c(C(=O)OCC(=O)c2c[nH]c3ccccc23)cc1OC | -1% | -0.3% | -22% | -2
Cc1cc(Cl)ccc1OC(C)C(=O)NCCCCc1ccccc1 (centres undefined) | 0% | 4.5% | 9% | -4
CS(=O)(=O)N1CCC(C(=O)NCc2ccc(F)cc2Cl)CC1 | -5% | -0.9% | 15% | -12
CCCCCn1c(CCC(=O)Oc2ccccc2OC)nc2c1c(=O)[nH]c(=O)n2CCCC | -1% | 6.5% | -14% | 1
CCOc1ccccc1CN1C(=O)NC(C)(c2ccccc2)C1=O (centres undefined) | -2% | -2.1% | 0% | -4
O=C(Nc1ccc(Cl)cc1)C1C2CCC3C(CCC21)C3(Cl)Cl (centres undefined) | -5% | 0.4% | -5% | 7
Cc1cc(C)cc(NC(=O)COC(=O)COc2cccc3c2OC(C)(C)C3)c1 | nt | -2.6% | -7% | nt
c1ccc(-c2nnc(NC3=NCCC3)o2)cc1 | 5% | -3.0% | ? | -2
CN(/N=C/C=C/c1ccccc1)c1cc(=O)n(C)c(=O)[nH]1 | -5% | -7.4% | -16% | -6
COc1ccc(N2CC(O)=C(c3nc(-c4ccc(Br)cc4)cs3)C2=N)cc1 | -4% | -3.3% | -29% | -12
COc1ccc(-c2[nH]ncc2CN(C)Cc2nonc2C)c(OC)c1 | -2% | -0.8% | 0% | -2

Random excerpt: three entries already listed
SMILES | miR-21 reporter | Rango complex inh | Rango release inh | GLA inh pH 4.5
CCCCCn1c(CCC(=O)Oc2ccccc2OC)nc2c1c(=O)[nH]c(=O)n2CCCC | -1% | 6.5% | -14% | 1
Cc1cc(C)cc(NC(=O)COC(=O)COc2cccc3c2OC(C)(C)C3)c1 | nt | -2.6% | -7% | nt
COc1ccc(N2CC(O)=C(c3nc(-c4ccc(Br)cc4)cs3)C2=N)cc1 | -4% | -3.3% | -29% | -12

(more compounds)
SMILES | miR-21 reporter | Rango complex inh | Rango release inh | GLA inh pH 4.5
COC(=O)c1sc2nc(-c3ccco3)ccc2c1N | -29% | ? | ? | 4
Cn1c(SCc2ccc(Br)cc2)nnc1-c1ccccn1 | -28% | 6.2% | -3% | 7
COc1cc(C(=O)Nc2ccc(S(=O)(=O)N3CCOCC3)cc2)c([N+](=O)[O-])cc1OC | 2% | 0.0% | 14% | -19
COc1ccccc1N1CCN(S(=O)(=O)c2ccc3c(c2)CC(C)N3C(C)=O)CC1 (centres undefined) | -1% | 0.0% | 1% | nt
c1ccc(-c2nnsc2Sc2ccccn2)cc1 | -43% | -0.1% | 18% | 0
CSc1ccc(S(=O)(=O)N2CCN(Cc3ccc4c(c3)OCO4)CC2)cc1 | -12% | -0.2% | -19% | 0
CC(C)Oc1ccc(OCCNC2CCCC2)cc1 | -8% | 2.8% | -13% | 4
Cc1nn(-c2ccccn2)c2nc(-c3cccs3)cc(C(=O)NCc3ccco3)c12 | -12% | -2.9% | -17% | 2
O=C(NCC(=O)N1CCN(c2ncccn2)CC1)c1ccccc1F | nt | 2.7% | -7% | nt
Cc1cc(Cl)ccc1OCC(=O)NNC(=O)C1CSC2(C)CCC(=O)N12 (centres undefined) | nt | -1.8% | 21% | nt
COc1ccc(Cc2nnc(N/N=C/c3ccc(O)cc3O)[nH]c2=O)cc1OC | 2% | -4.0% | -16% | -1
CC(=O)N1CCN(C(=O)c2ccc(Cl)c(S(=O)(=O)N3CCCC3)c2)CC1 | nt | 12% | 11% | nt
CCOC(=O)C1(Cc2cccc(OC)c2)CCN(Cc2ccon2)CC1 | 1% | ? | -21% | -7
Cc1c(-n2cc(C(=O)c3cc(Cl)ccc3O)cc(C#N)c2=O)c(=O)n(-c2ccccc2)n1C | -7% | ? | ? | 8
S=C(NC1CC1)NC1CCCc2ccccc21 (centres undefined) | -3% | -0.1% | 0% | 0
Cc1ccc(CN2CCN(C3CCOCC3)CC2CCO)cc1 (centres undefined) | 0% | ? | -3% | 1
C=CCn1cccc(C(=O)Nc2ccc(N(C)C)cc2)c1=O | -60% | -3.1% | -1% | nt
CCOc1ccc(S(=O)(=O)Nc2cc(OC)ccc2OC)cc1 | 23% | 5.7% | 8% | -8
Cc1ccc(CCN2CCN=C2N(C)C)cc1 | 0% | -0.4% | 8% | nt
N=c1c(S(=O)(=O)c2ccccc2)cc2c(=O)n3ccccc3nc2n1C1CCCC1 | -15% | ? | ? | nt
CC1CC(Nc2cccc(O)c2)=CC(=O)O1 (centres undefined) | -3% | -0.6% | 0% | -12
Cc1cc(-c2ccccc2)n(-c2ccccc2)n1 | -56% | -0.8% | -12% | nt
CC(=O)Nc1ccc(NC(=O)CSc2nnc(NC(=O)c3cccc(F)c3)s2)cc1 | -6% | 0.8% | 2% | nt
COc1cccc(/C=N/NC(=O)C(=O)N2CCCCCC2)c1OC | -3% | 0.5% | 1% | nt
O=c1[nH]c(-c2ccc(Cl)cc2)nc2c1cnn2-c1ccccc1 | -5% | nt | nt | 0
CCN(CC(=O)NCc1ccc(Cl)cc1)C(=O)CCOc1ccc(C)cc1 | nt | -1.7% | -1% | nt
O=C/C(=C\Nc1ccc(Cl)cn1)c1nc2cc(Cl)ccc2o1 | -5% | ? | ? | 3
CCOc1ccc(S(=O)(=O)N2CCCCCC2)cc1 | -5% | -0.9% | 18% | 5
COC(=O)C1=C(C)NC(=O)/C1=C\c1cccs1 | -10% | -2.3% | -7% | -1
CCOc1ccc(NC(=O)COc2nsnc2N2CCOCC2)cc1 | -2% | 11% | 0% | -6
Cc1cccc(N(C(=O)Cn2nnc(-c3ccc(F)cc3)n2)C(C(=O)NC(C)(C)C)c2ccncc2)c1 (centres undefined) | 0% | -0.4% | 9% | 11
CCOC(=O)C1CCN(C(=O)Nc2ccc(C)c(Cl)c2)CC1 | -15% | -0.4% | 2% | -1
O=C(Cn1nc(C(F)(F)F)c2c1CCC2)NC1CCCCC1 | 0% | -3.6% | 9% | -2
O=C(Nc1ccccc1F)c1cc(-c2ccco2)nc2ccccc12 | nt | ? | -4% | nt
COc1ccc(C(=O)CC(=O)C(=O)Nc2ccccc2Cl)cc1 | -2% | 0.1% | -2% | nt
N/C(=N\OC(=O)Cc1ccc(Cl)cc1)c1ccccn1 | -69% | -3.2% | 3% | -1
Cc1ccccc1S(=O)(=O)Oc1ccc2ccc(O)cc2c1 | -8% | -0.2% | 4% | nt
O=C(NCc1ccccn1)c1ccc(CS(=O)(=O)Cc2ccc(Cl)cc2)o1 | 0% | -0.1% | -5% | 4
N/C(=N\OC(=O)Cc1ccccc1)c1ccccc1Cl | -70% | -2.7% | 0% | -14
CCOc1ccc(C2NC(=O)C(C#N)=C(S)N2c2ccc(C)cc2)cc1OC (centres undefined) | -3% | 0.1% | 8% | 10

Source: PubChem BioAssay (National Center for Advancing Translational Sciences (NCATS))

The list is partial. The share of hits here may be higher or lower than overall.
